# Screening data (PubChem BioAssay)
# SARS PLpro yeast = qHTS of Yeast-based Assay for SARS-CoV PLP. S. cerevisiae expressing SARS-CoV PLpro, growth rescue; control for the full effect not named in the record. Potency, µM (doses to about 32.9 µM), for the others: top-dose activity, positive = growth rescue. hit rate 0.19% among 330,000. AID 485353, 2010; active means well fitted rising curve with a large enough effect; inconclusive means small, poorly fitted or top-dose-only effect; inactive means no such curve, though single readings can be large or run the other way; note: 0% is about no effect; nearly all actives have a fitted effect of over 55% in size; growth read by luminescence after 48 h
# RE007 growth inh = qHTS Assay for Inhibitors of the HIV-1 protein Vpr. Potency, µM (highest dose often 92.2 µM), without a hit: at the highest dose activity change, negative = less growth. hit rate 0.21% among 360,000. AID 651644, 2012. S. pombe RE007 Vpr strain, BacTiter-Glo ATP luminescence, 24 h; control for the full effect not named in the record; active = well fitted falling curve with a large enough effect; inconclusive = small, poorly fitted or top-dose-only effect; inactive = no such curve, though single readings can be large or run the other way;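 note: % is set by controls: 0 for no effect and ±100 for the full control effect; nearly all actives have a fitted effect of over 50% in size; the assay follows cell death caused by Vpr and the record does not say whether a fall means rescue or toxicity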
#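 Fission yeast strain RE007, carrying one chromosomally integrated HIV-1 vpr copy, was seeded at OD 0.01 in PMG+AL medium with 23 nL pinned compound. After 24 h at 30 °C and 99% humidity, viability was read by BacTiter-Glo luminescence.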
# StopGo reporter = High Throughput Screening for Foot and Mouth Disease Virus Antivirals | human cells with a luciferase reporter of 2A StopGo recoding; control for the full effect not named in the record | Potency, µM (titrated, usually from 57.9 µM), inactives show top-dose signal change, negative = less light | hit rate 1.2% among 410,000 | AID 1159524, 2015; active = well fitted falling curve with a large enough effect; inconclusive = small, poorly fitted or top-dose-only effect; inactive = no such curve, though single readings can be large or run the other way; tested in HEK293T cells; note: % is set by controls: 0 for no effect and ±100 for the full control effect; nearly all actives have a fitted effect of over 45% in size; luciferase light after 4 h
# The depositor's hits bear a star; ? = inconclusive; & = joins results of further samples; [ ] = remark or other dose. Potency is the fitted concentration of half-maximal effect. Some of the compounds tested; rates above refer to the full screens.
SMILES,SARS PLpro yeast,RE007 growth inh,StopGo reporter
Cc1ccc(C(=O)OCC(=O)NC2CC2)cc1S(=O)(=O)N1CCOCC1,-6%,0%,-11%
NCCCCCc1cn(CC(=O)NCCCCCCCCCCC(=O)N2CCNCC2)nn1,-1%,-8%,22%
CN(C)c1ccc(N=Nc2ccc(S(=O)(=O)O)cc2)c2ccccc12,2%,-11%,-11%
CN(CCc1ccccc1)C(=O)c1cccc(NC(=O)Cc2ccc([N+](=O)[O-])cc2)c1,-3%,-16%,?
CN(Cc1ccccc1)C(=O)COC(=O)CN1C(=O)c2ccccc2C1=O,0%,18%,-16%
CC(NC(=O)COC(=O)C1(C)CC1(Cl)Cl)c1ccccc1 (stereo not given),-5%,-7%,3%
CCCC[C@@H]1CNCCN1CCc1cccc(F)c1,0%,2%,-15%
Cc1nc(SCC(=O)NC2CCS(=O)(=O)C2)c(C#N)c(C)c1C (stereo not given),0%,-6%,35%[activator]
Nc1c(C(=O)CSc2nnc(-c3ccccc3)o2)c(=O)[nH]c(=O)n1C1CC1,-11%,10%,-16%
Brc1ccccc1-c1nc2c3ccccc3ncn2n1,14%,-22%,45%[activator]
N#CC1(NC(=O)CSc2nnc3n2CCCCC3)CCCCC1,-1%,-5%,1%
COc1cc(/C=C/C(=O)OCC(=O)N(C)Cc2ccccc2)ccc1O,-4%,5%,-23%
C=CCc1cccc(/C=N/NC(=O)c2ccccc2Br)c1O,-6%,-2%,-22%
CN(C)C(CNC(=O)CCNC(=O)c1ccccc1Cl)c1ccco1 (stereo not given),3%[6.58 µM],4%,2%
CCN1C(=O)C(=O)N(CC(=O)N(C)CC(=O)Nc2ccccc2C(F)(F)F)C1=O,1%,49%,-6%
Cn1c(SCC(=O)N2CC(=O)Nc3ccccc32)nc2ccccc2c1=O,-4%,13%,-26%
C[C@H](CO)N1C[C@H](C)[C@@H](CN(C)CC2CC2)Oc2c(NC(=O)Cc3ccccc3)cccc2C1=O,-3%,-2%,36%[activator]
O=C(CNC(=O)c1cccc(Br)c1)N/N=C/c1cc(Br)cc(Br)c1O,3.5µM*,-4%,-10%
COc1ccc(CNC(=O)CCCN2C(=O)NC3(CCCC3)C2=O)cc1,7%,-19%,-5%
O=C(N/N=C/c1ccccn1)c1cc([N+](=O)[O-])cc([N+](=O)[O-])c1,3%,-11%,?
CCN(CC(=O)Nc1c(F)cccc1F)C(=O)c1cccc(S(=O)(=O)N2CCCCCC2)c1,-4%,0%,-21%
O=C(CNc1ccc(C(F)(F)F)cc1)Nc1cccc(S(=O)(=O)N2CCCC2)c1,2%,-1%,-7%
CCCOc1cc(NCc2ccccc2)c2ncn(C(C)C)c2c1,7%,-10%,-18%
O=C(NCCO)c1nc(C(=O)c2ccc(Cl)cc2)c2ccccc2n1,4%,-7%,-11%
O=C(Nc1ccccc1N1CCCC1)C1=COCCO1,1%,-3%,-11%

# 6 entries drawn at random from the list so far, as already listed:
SMILES,SARS PLpro yeast,RE007 growth inh,StopGo reporter
C=CCc1cccc(/C=N/NC(=O)c2ccccc2Br)c1O,-6%,-2%,-22%
O=C(CNc1ccc(C(F)(F)F)cc1)Nc1cccc(S(=O)(=O)N2CCCC2)c1,2%,-1%,-7%
Cc1nc(SCC(=O)NC2CCS(=O)(=O)C2)c(C#N)c(C)c1C (stereo not given),0%,-6%,35%[activator]
N#CC1(NC(=O)CSc2nnc3n2CCCCC3)CCCCC1,-1%,-5%,1%
Nc1c(C(=O)CSc2nnc(-c3ccccc3)o2)c(=O)[nH]c(=O)n1C1CC1,-11%,10%,-16%
Cn1c(SCC(=O)N2CC(=O)Nc3ccccc32)nc2ccccc2c1=O,-4%,13%,-26%

# The listing picks up; the four compounds before the break are reprinted first.
SMILES,SARS PLpro yeast,RE007 growth inh,StopGo reporter
O=C(CNc1ccc(C(F)(F)F)cc1)Nc1cccc(S(=O)(=O)N2CCCC2)c1,2%,-1%,-7%
CCCOc1cc(NCc2ccccc2)c2ncn(C(C)C)c2c1,7%,-10%,-18%
O=C(NCCO)c1nc(C(=O)c2ccc(Cl)cc2)c2ccccc2n1,4%,-7%,-11%
O=C(Nc1ccccc1N1CCCC1)C1=COCCO1,1%,-3%,-11%
CC1(C)Oc2ccc3ccc(=O)oc3c2[C@@H](O)[C@@H]1O,8%,-10%,-15%
CCN(CC)c1ccc(C=NCCc2ccc(S(N)(=O)=O)cc2)cc1,-1%,14%,22%
CCOC(=O)C1=CC[C@@H](c2cc(OC)c(OC)c(OC)c2)N(S(=O)(=O)c2ccc(C)cc2)[C@H]1C(=O)OCC,3%,5%,-22%
COc1ccccc1C1=CC(=O)C[C@H](c2ccc3c(c2)OCO3)C1,-29%,5%,0%
CC(C)(C)OC(=O)N[C@@H](/C=C/c1ccccc1)C(=O)OC(C)(C)C,0%,6%,-20%
CCOC(=O)[C@H]1[C@H]2COc3ccc(C)cc3[C@@H]2N2C(=O)c3cc(C)ccc3NC(=O)[C@@]12C,3%,-1%,-26%
Cc1ccc(N(CCC#N)C(=O)CSc2nnc3ccccn23)cc1,-1%,4%,-8%
CCOC(=O)c1c(C)[nH]c(C(=O)OC(C)C(=O)NC2CCCCC2C)c1C (stereo not given),-6%,0%,-24%
COc1ccc(-c2sc3ccc(-c4ccc5c(c4)OCO5)cc3c2-c2ccc(OC)nc2)cc1,0%,-8%,-16%
O=C1C=C(c2ccc(C(=O)O)c(Cl)c2)C[C@@H](c2ccc3c(c2)OCO3)C1,-1%,17%,14%
COc1ccc(S(=O)(=O)N2CCCCCC2)cc1C(=O)NCCc1ccccc1,-4%,2%,-1%
CCOC(=O)CNS(=O)(=O)Cc1ccccc1,3%,1%,-2%
O=C(Cc1ccc(Br)cc1)N1CCN(C(=O)c2ccccc2)CC1,0%,2%,-7%
COc1ccc(C2CC(c3ccccc3)=NN2C(=O)COC(=O)c2cccc(N)c2)cc1 (stereo not given),4%,9%,-18%
COc1ccc(-c2ccc3c(c2)S(=O)(=O)c2cccc(C(=O)NC4CCCC4)c2C3=O)cc1OC,4%,5%,0%
O=C(NCCC(=O)N(Cc1ccco1)Cc1cccs1)c1ccc(Br)cc1,3%,1%,-19%
O=C(CCc1nc2ccccc2c(=O)[nH]1)N1CCN(S(=O)(=O)c2ccc(F)cc2)CC1,0%,10%,-25%
CC(C)=CCC[C@](C)(OC1OC(COC2OCC(O)C(O)C2O)C(O)C(O)C1O)C1CC[C@]2(C)C1C(O)CC1[C@@]3(C)CCC(O[C@@H]4O[C@H](CO)C(O)C(O)C4O[C@@H]4OC(CO)C(O)C(O)C4O)C(C)(C)C3CC[C@]12C (stereo not given in full),-4%,19%,-22%
CSc1nc(-c2ccccc2F)c(C#N)c(=O)n1C,0%,12%,-12%
COc1cc([C@H]2OC[C@H]3[C@@H]2CO[C@H]3c2ccc(O)c(OC)c2)ccc1O,1%,11%,-7%
CC(NC(=O)c1ccccc1F)C12CC3CC(CC(C3)C1)C2 (stereo not given),0%,7%,-23%
CN(C(=O)c1ccc(NC(=O)Cc2ccc([N+](=O)[O-])cc2)cc1)C1CCCC1,-2%,1%,-20%
Cc1ccc(S(=O)(=O)N2[C@@H](c3ccccc3F)C(C(=O)O)=CC[C@H]2c2ccc(Cl)c(Cl)c2)cc1,6%,5%,0%
CC(=O)c1ccc(S(=O)(=O)N2CCN(C(C)C(=O)N(C)Cc3ccccc3)CC2)cc1 (stereo not given),0%,-2%,0%
Cc1ccc(C(=O)OCC(=O)NCc2cc(C)c(O)c(C)c2)cc1S(=O)(=O)N1CCCCC1,4%,9%,-30%

# An excerpt from above in order of SMILES length, lowest first.
SMILES,SARS PLpro yeast,RE007 growth inh,StopGo reporter
O=C(Cc1ccc(Br)cc1)N1CCN(C(=O)c2ccccc2)CC1,0%,2%,-7%
CC1(C)Oc2ccc3ccc(=O)oc3c2[C@@H](O)[C@@H]1O,8%,-10%,-15%
CCOC(=O)c1c(C)[nH]c(C(=O)OC(C)C(=O)NC2CCCCC2C)c1C (stereo not given),-6%,0%,-24%

# (list continues)
SMILES,SARS PLpro yeast,RE007 growth inh,StopGo reporter
Cc1ccc(CNC(=O)c2c(-c3ccccc3)sc3ccccc23)o1,12%,-1%,-15%
O=C(Nc1ccc(Cl)cc1)c1nc[nH]c1C(=O)N1CCN(c2ccccc2)CC1,3%,0%,3%
COC(=O)[C@]1(C)CCC[C@@]2(C)C3CC[C@@]4(C)C[C@]3(CCC21)CC4=NO (stereo not given in full),-2%,-7%,-7%
O=C(CN1CCN(C(c2ccccc2)c2ccccc2)CC1)Nc1ccc(N2CCOCC2)cc1,-4%,9%,6%
CC(=O)NC(CSC(CC(=O)c1ccco1)c1ccc(C)cc1)C(=O)O (stereo not given),0%,?,19%
COc1ccc(C2CC(=O)N(CC(=O)NCC3CCCO3)c3ccccc3S2)cc1 (stereo not given),0%,18%,-20%
O=C(COC(=O)c1cnccn1)Nc1cccc(F)c1,5%,-3%,4%
CCOC(=O)C1=CNS(=O)(=O)NC1c1ccc(C#N)cc1 (stereo not given),-9%,0%,-4%
CCOC(=O)N1CCN(C(=O)/C(=C/c2ccc(N(C)C)cc2)NC(=O)c2ccccc2)CC1,-1%,9%,26%
COC(=O)C1=C(c2ccc(Cl)c(C(F)(F)F)c2)C[C@@H]2CC[C@H]1N2C(=O)NCCO,-2%,12%,-12%
CCc1ccc(NC(=O)C(C)Sc2nnc(CN3CCCC3)o2)cc1 (stereo not given),-11%,-14%,-5%
COC(=O)C1=C(c2ccc3ccccc3c2)C[C@@H]2CC[C@H]1N2C,-28%,-1%,18%
CC(=O)c1sc(NC(=O)c2ccc(F)c(S(=O)(=O)N3CCOCC3)c2)nc1C,2%,-3%,-11%
CC(C)(C)OC(=O)C[C@H]1C/C=C\C[C@H](CC(=O)N(CCO)Cc2ccccc2)C(=O)NC[C@H](c2ccccc2)OC1=O,-6%,0%,-12%
Cc1ccc(S(=O)(=O)N2CCCCC2)cc1NC(=O)[C@@H]1CCCN1C(=O)c1cccs1,-15%,10%,20%
CC(C)(C)OC(=O)NOCC(=O)N(Cc1ccccc1)CC(O)COc1ccccc1 (stereo not given),0%,5%,-6%
COC(=O)c1sccc1NC(=S)N(C)C1CCCCC1,-8%,-18%,-9%
O=C(O)c1ccccc1N=N/C(=N/Nc1cc(S(=O)(=O)O)ccc1O)c1ccccc1,1%,4%,-9%
CC(C)C(NC(=O)c1ccccc1)C(=O)OCC(=O)N1CCCCC1 (stereo not given),-4%,-1%,-19%
CC(NC(=O)c1cc(S(=O)(=O)N2CCCC2)ccc1Cl)c1ccccn1 (stereo not given),-6%,5%,-8%
Fc1cccc(CCN2CCNC[C@@H]2c2ccccc2)c1,1%,10%,-17%
O=C(NC(=S)Nc1ccc(O)cc1)C1CCCC1,1%,-2%,79%[activator]
COc1ccc(NC(=O)CN2CCCC2c2cccs2)cc1S(=O)(=O)N1CCCCC1 (stereo not given),-12%,2%,40µM*
COc1ccccc1-c1oc2ccccc2c1C#CCCO,1%,7%,-20%
COc1ccc(NS(=O)(=O)c2ccc(C)c(NC(=O)CN3C(=O)NC4(CCCC4)C3=O)c2)cc1,-1%,-9%,36%[activator]
# Other records
SMILES,SARS PLpro yeast,RE007 growth inh,StopGo reporter
O=C(Cn1c(NCCCCl)nc2ccccc21)c1ccccc1,9%,-6%,-21%
COc1cc(C(=O)Nc2cccc(S(=O)(=O)NCc3ccco3)c2)cc(OC)c1OC,-3%,2%,30%[activator]
Cc1sc2ncnc(N3CCC(C(=O)Nc4ccc(Cl)c(Cl)c4)CC3)c2c1C,-8%,7%,?
Cc1cc(-c2ccccc2)cc(C)[n+]1Cc1ccccc1,1%,-18%,?
COc1ccc(-c2cc(C(=O)N3CCc4ccccc4C3)no2)cc1,0%,3%,8%
O=C(Nc1ccc(F)cc1)c1ccc(C(=O)N2CCOCC2)cc1,7%,3%,10%
Cc1cc(NC(=O)CSCc2ccccc2)no1,-1%,-1%,10%
Cc1ccc2nc(-c3cccc(SC4CCCCC4)c3)c(NCc3ccccc3)n2c1,1%,-20%&-12%,25µM*
COc1ccc(OCC(=O)OCC(=O)NC2CCCCC2C)cc1 (stereo not given),-2%,-2%,-9%
O=C(NC(CO)(CO)CO)[C@@H]1CCCN1S(=O)(=O)c1cccc2cccnc12,1%,-10%,-3%
CCN1CCN(C(c2cccs2)C(C)NS(=O)(=O)c2ccccc2)CC1 (stereo not given),-2%,-13%,-13%
COC(=O)C1=C(c2cccc(C#N)c2)C[C@@H]2CC[C@H]1N2C(=O)NCCOc1ccccc1Cl,1%,1%,-14%
CN(Cc1ccc(OC(F)F)cc1)C(=O)/C=C/c1ccc(S(=O)(=O)N2CCOCC2)cc1,9%,2%,?
